# CapD inh: Bacillus anthracis CapD inhibitors, primary screen, biochemical, fluorescence intensity | CapD gamma-glutamyltranspeptidase (Bacillus anthracis Ames Ancestor) | AID 492967, 2010 | purified CapD enzyme, fluorescence intensity read-out; stronger effect = lower value; some hits fall short of the stated cut | 0.23% of 140,000 active | z-score (test concentration not listed);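 active = z-score under -4 in either of two replicates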;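 note: stock transfer was 100 nL into about 40 µL; score is relative to mean and spread of the plate; one replicate is shown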
# AID504770: growth inhibition of E. coli YBA685, primary screen, V. cholerae RctB inhibitors; E. coli YBA685 rctB-dependent plasmid, OD600 growth, 3 h; stronger effect = lower value; z-score (concentration not given with the values); AID 504770, 2011; 0.27% of 130,000 active;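 active = z-score under -2 on both plates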;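 note: wells of about 30 µL received 100 nL stock; score is relative to mean and SD of the test wells; the first replicate is given; strong numbers were not always called active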
# * = called active by the depositor; · = no result given. Some of the compounds tested; count on the stated rates, not on these rows.
SMILES,CapD inh,AID504770
Cc1ccc(-n2c(C)cc(/C=N/NC(=O)CC3(C)OCCO3)c2C)cc1,·,-0.3
Cc1cc(CO)sc1C,-1.2,-0.9
CC(=O)/C(=C1\NC(C)(C)Cc2cc(C)c(C)cc21)c1ccccc1,-0.12,·
CC1CCN(C(=O)COC(=O)c2cc(C(F)(F)F)cc(C(F)(F)F)c2)CC1,·,-0.2
CC1CC2C/C(=N\O)CC1N(C)C2 (stereo not drawn),-1.1,·
NNC(=O)c1ccccc1O,5.1,·
Cc1ccc2[nH]c3c(C#N)c(=O)c4nc(N5CCCC5)ncc4n3c(=O)c2c1,·,0.05
COC(=C(C#N)C#N)c1c(-c2c(Cl)cccc2Cl)noc1C,-0.52,-0.7
COc1cc(OC)cc(C(=O)NC2C3CC4CC(C3)CC2C4)c1 (stereo not drawn),-0.61,-0.85
Nc1nc(N)nc(SCC(=O)N2CCSC2c2ccccc2F)n1 (stereo not drawn),·,-0.7
CCN(Cc1cc2ccc(C)cc2[nH]c1=O)C(=O)C1CCCCC1,·,-0.5
CCCCCCCN1C=C/C(=C\C=C\c2cc[n+](CCCCCCC)c3ccccc23)c2ccccc21,0.03,·
Cc1cc(C)n2c(CNC(=O)c3ccc(S(=O)(=O)N4CCCCCC4)cc3)nnc2n1,·,-0.25
COc1cc2c(cc1OC)/C(=C/c1cccs1)C(=O)N2,-1.5,0.45
O=C1CCC(C(=O)OCc2c(Cl)cccc2Cl)N1 (stereo not drawn),·,0.5
O=C1CSC(=S)N1c1ccc(F)c(F)c1,0.075,-1.7
O=C(NC(=O)c1ccccc1O)c1ccoc1,0.84,-0.15
COC(=O)c1ccc(N=c2sc(C(=O)OC)cc(=O)n2Cc2ccccc2)cc1,1.2,0.15
Cn1c(C(C#N)C(=O)c2cccc(S(=O)(=O)N3CCc4ccccc43)c2)nc2ccccc21 (stereo not drawn),·,0.2
C#CCSc1nnc(CC(OC)OC)n1-c1cccc(C(F)(F)F)c1,0.26,·
COC(=O)C1=C(N)OC2=C(C(=O)CC(c3ccccc3)C2)C1c1ccccc1Cl (stereo not drawn),-0.51,·
Cc1oc(C)c(C(=O)O)c1C,·,0.1
O=c1[nH]c(O)c(N=Nc2ccc(C(F)(F)F)cc2[N+](=O)[O-])c(=O)[nH]1,-3.2,·
O=C(N/N=C/c1ccccc1O)c1ccc(N2Cc3ccccc3C2)cc1,-0.26,0.4
O=C(CSc1n[nH]c(=O)n1C1CC1)Nc1ccccc1,-1.3,-0.5
CC(C)c1ccc(NC2=CC(=O)CC(C)(C)C2)cc1,0.07,0.6
Cc1cc2c(cc1C)N=C(C(F)(F)F)CC(c1cccs1)=N2,-0.78,·
Cc1nc2nc(NCc3c(F)cccc3Cl)[nH]n2c(=O)c1C,-0.32,-0.85
CC(C)C1=CCC(C)/C(=C\c2ccc(Cl)cc2)C1=O (stereo not drawn),6.7,-0.4
OCc1nc2c(ccc3ccccc32)[nH]1,·,1.1
CCOC(=O)CC1=C(C(=O)OCC)C(c2cccnc2)C(C#N)=C(N)O1 (stereo not drawn),0.28,·
COc1ccc2[nH]c3c(=O)n(Cc4ccc(Cl)cc4)cnc3c2c1,5.9,-0.8
C/C(=N\NC1=NCCN1)c1ccc(F)cc1,0,·
CCOc1ccc(C(Nc2ccccc2)P2(=S)OCCCO2)cc1 (stereo not drawn),0.14,-0.8
Cc1cc(C(=O)COC(=O)c2cccs2)c(C)n1CCc1ccccc1,·,-0.4
O=C1Nc2ccccc2S/C1=C/c1ccccc1,0.55,·
CCOC(=O)C1CCN(/C=C(\C#N)S(=O)(=O)c2ccccn2)CC1,0.5,0.25
CCCc1cc(-c2[nH]ncc2-c2ccc(C(=O)OCC)o2)c(O)cc1O,·,0.4
CCOC(=O)c1c(C)oc2nc(CN(c3ccc(OC)cc3)S(=O)(=O)c3cc(C)ccc3C)nc(N)c12,·,0.6
O=C1CC(Nc2ccc(F)cc2)C(=O)N1c1ccc(F)cc1 (stereo not drawn),0.71,·
CN1CCCC1CCNS(=O)(=O)c1cccc2nonc12 (stereo not drawn),-0.15,·
COc1ccc(CC(N)=S)cc1,0.49,·
O=C(N/N=C/c1cc2ccccc2o1)c1csc(CS(=O)(=O)Cc2ccco2)n1,9.8,·
CSc1ccc(Nc2nc(C)cc(C)n2)cc1,-0.67,·
S=c1[nH]nc(Nc2cc(Cl)cc(Cl)c2)s1,-1.2,1.2
O=[N+]([O-])c1ccc2nc(N3CCOCC3)nc(-c3ccccc3)c2c1,0.28,·
C=CCn1c(SCc2ccc(C#N)cc2Cl)nnc1-c1cccc(OC)c1,0.24,-0.45
CCCC1COC(Cn2cncn2)(c2ccc(Cl)cc2Cl)O1 (stereo not drawn),0.41,0.45
Clc1ccc(-c2nc3cnccn3c2NC2CCCC2)cc1,-0.54,-0.05
O=C(c1csc2c1CCCC2)N1CCc2ccccc2C1,-0.1,1
COc1ccc(-n2c(SCC(=O)O)nc3c([nH]c4ccccc43)c2=O)cc1OC,·,-0.05
CC(C)N(Cc1nc(-c2ccccc2)no1)C(=O)C(c1ccccc1)c1ccccc1,-0.32,0.2
CC1CC2OC(C)(C)OC2C(OC(=O)c2ccccc2)O1 (stereo not drawn),0.73,-0.25
N/C(=N\O)c1ccc(N2CCN(c3ncccc3C(F)(F)F)CC2)nc1,-0.075,-0.5
Cc1cc(C)nc(SCC(=O)OCC(=O)c2cc(C)n(C)c2C)n1,·,0.95
COc1ccc(NC(=O)c2nc(S(C)(=O)=O)ncc2Cl)cc1Cl,-1.1,-0.85
CC1CCCCN1C(=O)CSc1nc2ccccc2c(=O)n1Cc1ccc(C(=O)NCc2ccco2)cc1 (stereo not drawn),0.81,-0.05
COc1ccc(NC(C)=S)cc1OC,·,0.45
CCN(Cc1ccccc1)C(=O)Cn1nc(C)n2c(cc3occc32)c1=O,-0.22,-0.25
O=C(c1ccccc1)N1CCN(CC(O)Cn2c3ccc(Br)cc3c3cc(Br)ccc32)CC1 (stereo not drawn),0.24,·
# The list goes on.
SMILES,CapD inh,AID504770
O=C(CCc1c[nH]c2ccccc12)OCc1nnc(-c2ccccc2)o1,-0.31,-0.6
CN(C)c1ccc(-n2nnnc2SCc2ccc(OC(F)(F)F)cc2)cc1,-0.69,-0.35
CCc1cc(-c2ccccc2)nc2ccccc12,0.21,-0.05
O=C(/C=C1\Sc2ccccc2NC1=O)NCc1ccco1,2.8,0.45
CC1=CC(C)C(COC(=O)Nc2ccccc2)C(C)C1 (stereo not drawn),0.38,0.4
Cc1ccc(NC(=S)NC(=O)CC(C)C)cc1,-0.53,-0.9
COc1cc(C2C(C#N)=C(N)Oc3n[nH]c(C(C)(C)C)c32)ccc1OC(=O)N1CCOCC1 (stereo not drawn),0.14,·
CCc1nc(N2CCCCC2)c2sc(=S)n(-c3ccccc3)c2n1,-0.66,0.6
CCSc1nnc2c(n1)OC(c1cc(OC)c(O)c(OC)c1)Nc1ccccc1-2 (stereo not drawn),-0.96,·
C=C(C)n1c(=O)n(Cc2ccc(C)cc2)c2ccccc21,-0.14,0.15
COc1cccc(-c2c(C(N)=O)nnc3cc(-c4ccccc4)nn23)c1,0.24,0.5
O=C(NCCc1ccccc1)C1c2ccccc2-c2ccccc21,0.23,0.2
COCCn1cc(C(=O)NC2CCCCCC2)c2c3ccccc3n(C)c2c1=O,-0.04,0.05
O=C(O)CCCC(=O)N1CCC(c2nnc(-c3ccccc3)o2)CC1,-0.075,·
Cn1c(-c2nonc2NC(=O)c2cccs2)nc2ccccc21,29,1.9
COc1ccc2c(c1)-c1c(ssc1=Nc1cccc3ccccc13)C(C)(C)N2,-1.4,·
CCCCN(C)C(=O)C1CCN(Cc2ccc(OCc3ccccc3)c(OC)c2)CC1,·,1.9
O=C(CSc1nnc(-c2c[nH]c3ccccc23)o1)NC1CC1,·,0
Oc1oc(C=Nc2cccc(C(F)(F)F)c2)c2ccccc12,-0.045,0.35
CCOc1ccc(-c2[nH]ncc2-c2csc(C)n2)c(O)c1,·,1.3
CCOC(=O)N1CCN(C(=O)NCCNc2ccccc2)CC1,0.47,·
COc1cccc(-c2c(OC)cccc2C2CCCCN(C)C2=O)c1 (stereo not drawn),0.03,-0.55
Cc1ccsc1C(=O)OCc1ccc(C#N)cc1,·,-0.15
NCCC(Cc1ccccc1)c1ccco1 (stereo not drawn),-0.26,-1.1
O=C(COC(=O)c1ccc2c(c1)OCCO2)NCc1ccccc1,·,0.55
COc1ccc(C2CC(=O)C3=C(C2)NC(C)=C(C(=O)OCC(C)C)C3c2cc(OC)ccc2OC)cc1 (stereo not drawn),15,·
CCOc1cc(/C=C2/C(=N)N3C(c4ccccc4)=CSC3=NC2=O)ccc1OCCOc1cccc(C)c1,0.11,·
O=C(/C=C/c1ccc(F)cc1Cl)NNC(=O)OCCc1cccc(Br)c1,11,·
CCC(C)(C)c1ccc(S(=O)(=O)NCc2ccccc2OC(F)(F)F)cc1,-0.51,·
CCOC(=O)/C(C(=O)Nc1ccc(Cl)cc1Cl)=C1/NC(C)(C)Cc2ccccc21,-0.43,·
N#Cc1ccc(Cn2c3ccccc3c3nc4ccccc4nc32)cc1,0.42,·
CCN(CC)C(=O)Cn1cnc2sc(C(=O)Nc3ccc(Oc4ccccc4)cc3)c(C)c2c1=O,-0.89,·
COc1ccc(CNCCC2(O)CC(C)N(C)CC2C)cc1OC (stereo not drawn),·,-0.15
COc1ccc(C)cc1NC(=O)C1CCN(S(=O)(=O)c2ccc(OC)c(OC)c2)CC1,·,-1.2
c1ccc(OCCSc2nncn2-c2ccccc2)cc1,·,1.1
CCOC(=O)c1ccc(S(=O)(=O)NNC(=O)c2ccccc2N)cc1,0.45,·
COc1ccc(-n2ncc3c(N4CCN(c5ccc(C)cc5)C(C)C4)ncnc32)cc1 (stereo not drawn),-0.095,·
COc1cc(-c2cc(C(F)(F)F)n3ncc(C(=O)N4CCN(Cc5ccccc5)CC4)c3n2)cc(OC)c1OC,-2,·
Cc1ccc(S(=O)(=O)c2nc(Nc3nccs3)sc2Cl)cc1,-5.1*,0.3
CC1CCCN(CNC(=O)c2ccccc2)C1 (stereo not drawn),·,0.1
C/C(=N\O)c1ccn(S(=O)(=O)c2ccc(Cl)cc2)c1,0.07,·
CCOc1ccc(C=NC2=C(C#N)CCC2)cc1OC,·,0.85
CC(C)N1CC(C)C(OC(=O)c2ccccc2)(c2ccccc2)CC1C (stereo not drawn),-0.32,·
O=C1CS/C(=N\N2CCOCC2)N1Cc1ccccc1,·,-0.6
CCOC(=O)c1sc(NC(=O)C(C)Sc2nnc(CNC(=O)COc3ccccc3)n2C)c(C(=O)OCC)c1C (stereo not drawn),-0.55,·
NC(=O)c1c(C(F)(F)F)cc(C(F)(F)F)cc1C(F)(F)F,0.64,0.4
O=C(CSc1cc(Cl)nc(Cl)c1)NN1CCOCC1,0.28,·
COc1ccc(-c2nc3ccccc3[nH]2)cc1,14,·
O=C(O)CC1NC(=O)N(c2ccccc2)C1=O (stereo not drawn),·,-0.35
CCOc1ccccc1C1Oc2ccc(Cl)cc2C2CC(c3ccc(OC)cc3)=NN21 (stereo not drawn),0.39,·
CC1CCc2nc(NC(=O)c3ccc(F)c(F)c3)sc2C1 (stereo not drawn),6.3,-1.1
Nn1c(SCCN2C(=O)c3ccccc3C2=O)nnc1-c1ccccc1Br,·,-0.25
O=C(Sc1ccccc1)c1ccno1,-3.4,-0.9
O=S(=O)(Oc1ccc(Oc2ccccc2)cc1)c1ccc(Cl)cc1,-0.18,·
Cc1noc(/C=C/N(C)C)c1S(=O)(=O)N1CCC(C(=O)O)CC1,-3.6,-0.05
COc1cc(-c2nnc(COc3cc(C(F)(F)F)cc(C(F)(F)F)c3)o2)cc(OC)c1OC,·,-0.15
CCOc1ccc(N(C(C)C(=O)N(C)Cc2ccccc2)S(C)(=O)=O)cc1 (stereo not drawn),0.23,-2.3
CN(C(=O)CS)c1nc2c3ccccc3ncn2n1,·,0.1
CC1CC(Nc2ccccc2)c2ccccc2N1C(=O)c1cccs1 (stereo not drawn),-0.3,·
CN(c1nc(N)c(C#N)c(CC#N)c1C#N)C1CCS(=O)(=O)C1 (stereo not drawn),·,2
CSCCOC(=O)C1=C(C)NC(=O)NC1c1ccccc1OCc1ccccc1 (stereo not drawn),0.6,·
O=C(COC(=O)c1ccc[nH]c1=O)NC(c1ccccc1)c1ccccc1,·,0.55

# Structural class: those above with an aryl thioether with sulfur outside any ring (15)
SMILES,CapD inh,AID504770
Nc1nc(N)nc(SCC(=O)N2CCSC2c2ccccc2F)n1 (stereo not drawn),·,-0.7
C#CCSc1nnc(CC(OC)OC)n1-c1cccc(C(F)(F)F)c1,0.26,·
O=C(CSc1n[nH]c(=O)n1C1CC1)Nc1ccccc1,-1.3,-0.5
CSc1ccc(Nc2nc(C)cc(C)n2)cc1,-0.67,·
C=CCn1c(SCc2ccc(C#N)cc2Cl)nnc1-c1cccc(OC)c1,0.24,-0.45
COc1ccc(-n2c(SCC(=O)O)nc3c([nH]c4ccccc43)c2=O)cc1OC,·,-0.05
Cc1cc(C)nc(SCC(=O)OCC(=O)c2cc(C)n(C)c2C)n1,·,0.95
CC1CCCCN1C(=O)CSc1nc2ccccc2c(=O)n1Cc1ccc(C(=O)NCc2ccco2)cc1 (stereo not drawn),0.81,-0.05
CN(C)c1ccc(-n2nnnc2SCc2ccc(OC(F)(F)F)cc2)cc1,-0.69,-0.35
CCSc1nnc2c(n1)OC(c1cc(OC)c(O)c(OC)c1)Nc1ccccc1-2 (stereo not drawn),-0.96,·
O=C(CSc1nnc(-c2c[nH]c3ccccc23)o1)NC1CC1,·,0
c1ccc(OCCSc2nncn2-c2ccccc2)cc1,·,1.1
CCOC(=O)c1sc(NC(=O)C(C)Sc2nnc(CNC(=O)COc3ccccc3)n2C)c(C(=O)OCC)c1C (stereo not drawn),-0.55,·
O=C(CSc1cc(Cl)nc(Cl)c1)NN1CCOCC1,0.28,·
Nn1c(SCCN2C(=O)c3ccccc3C2=O)nnc1-c1ccccc1Br,·,-0.25
